Screening data as filed in PubChem.
Rango release inh = inhibitors of RanGTP-induced Rango-importin beta complex dissociation | Biochemical FRET Rango-importin beta, RanGTP-induced dissociation | O95149+P62826 | 340,000 tested, 0.071% active | AID 540253 | Potency, µM (highest dose often 46.1 µM), inactives show at the highest dose activity change, negative = inhibition; active means falling FRET ratio curve, often poorly fitted, with flat reads before Ran was added; inconclusive means other falling curves, or compound fluorescence or quenching; inactive means flat or rising ratio curve;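 further: potency means the concentration at half of the fitted maximal effect; % of control where 0% means no effect; nearly all actives have a fitted effect of over 45% in size; -100% = wells without RanGTP and RCC1; the record marks most hits as doubtful in a second field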
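FRET read at 45 min, room temperature: inhibitors block the CFP/YFP signal rise when RanGTP (0.6 uM Ran, 2 mM GTP, 0.2 uM RCC1) frees Rango (0.1 uM) from importin beta (0.25 uM). Pre-read after 5 min compound exposure flags interference.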
Rango-impB inh = Rango-importin beta binding inhibition | AID 540263 | Q14974 | Potency, µM (doses to about 92.2 µM), for inactives: at the highest dose inhibition of complex formation | 340,000 tested, 0.031% active | Rango CFP/YFP FRET sensor + importin beta, 45 min; active = rising FRET ratio curve, often small or poorly fitted; inconclusive = mostly compound fluorescence or quenching in the first reads; inactive = flat curves in all reads;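 further: potency means the concentration at half of the fitted maximal effect; 0% = DMSO wells and 100% = buffer wells lacking importin beta; nearly all actives have a fitted effect of over 15% in size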
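FRET biosensor Rango (snurportin 1 IBB between N-terminal EYFP and C-terminal Cerulean), 50 nM in PBS/1 mM DTT/0.02% Tween-20/0.1% BSA, preincubated 5 min RT with compound; 0.125 microM importin beta added, 45 min RT, CFP/YFP FRET ratio read.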
miR-21 reporter = miR-21 reporter, rising signal; HeLa miR-21 FLuc reporter, luciferase, 48 h; Potency, µM (doses to about 38.3 µM), inactives show at the top dose reporter change, positive = more light; AID 2288; 340,000 tested, under 10 active; active = well fitted rising curve with a large enough effect; inconclusive = small, poorly fitted or top-dose-only effect; inactive = no such curve, though single readings can be large or run the other way;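 further: % of control where 0% means no effect; miR-21 action dims this reporter so a rising signal means less miR-21 action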
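HeLa cells endogenously expressing miR-21, stably carrying CMV-driven firefly luciferase with a downstream miR-21 binding site, 2000 cells/well. Titrations up to approximately 40 uM, 48 hours; luciferase luminescence read.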
GLA inh pH 4.5 = inhibitors of human alpha-galactosidase A at pH 4.5 | P06280 | purified enzyme, 4-MU-alpha-Gal fluorescence, pH 4.5 | activity change, negative = inhibition, % at 105 µM | 230,000 tested, under 10 active | AID 1467; inconclusive = small, poorly fitted or top-dose-only inhibition, or a rising curve; inactive = flat fitted curve, though single readings scatter; no compound was filed as active;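 further: 0% = full activity with enzyme and -100% = basal without enzyme; dose as in the result columns while the protocol names 77 µM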
Target sequence (P06280 whole entry, looked up): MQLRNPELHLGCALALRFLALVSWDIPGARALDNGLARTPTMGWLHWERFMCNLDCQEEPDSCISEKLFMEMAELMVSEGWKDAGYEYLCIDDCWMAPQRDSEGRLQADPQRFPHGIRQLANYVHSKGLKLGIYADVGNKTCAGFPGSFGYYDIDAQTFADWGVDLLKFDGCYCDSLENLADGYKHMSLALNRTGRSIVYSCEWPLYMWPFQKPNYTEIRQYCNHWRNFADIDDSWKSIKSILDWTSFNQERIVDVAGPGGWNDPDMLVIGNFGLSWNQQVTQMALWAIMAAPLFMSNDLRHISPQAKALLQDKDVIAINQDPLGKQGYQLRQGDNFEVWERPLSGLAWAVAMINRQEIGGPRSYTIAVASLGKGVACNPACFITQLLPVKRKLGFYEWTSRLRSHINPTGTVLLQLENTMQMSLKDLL
The depositor's hits bear a star; ? = inconclusive; · = not tested or not shown; & = joins results of further samples; [ ] = another dose, or the depositor's remark.

entry	structure	Rango release inh	Rango-impB inh	miR-21 reporter	GLA inh pH 4.5
1	CCCN1C(=O)c2cc(C(=O)Nc3ccccc3C)ccc2C1Nc1ccccc1C (stereo unspecified)	-4%	-1.6%	5%	-2
2	CCn1c(CNC(=O)c2cccs2)nnc1SCC(=O)Nc1ccc(Cl)cc1	0%	2.0%	-6%	-7
3	Cc1nn(-c2ccccc2)nc1CNC(=O)C1CC1	-11%	-4.4%	-22%	3
4	COc1ccccc1NC(=O)CN1C(=O)NC2(CCCCCCC2)C1=O	-2%	-3.8%	-7%	-6
5	O=c1c2ccccc2nc(-c2ccco2)n1/N=C/c1ccco1	-14%	-2.9%	-8%	7
6	CCOc1ccc(NC(=O)COC(=O)c2ccc3c(c2)C(=O)N(CCc2ccccc2)C3=O)cc1	14%	4.3%	-7%	0
7	CN(C)CCCN(C(=O)c1ccc2c(c1)CCCC2)c1nc2ccc(F)cc2s1	0%	8.6%	-19%	-3
8	COc1cc2c(cc1/C=C1/NC(=O)N(c3ccccc3)C1=O)OCO2	?	?	-28%	-3
9	O=C(NCCO)C1(c2ccc(Cl)cc2)CCCC1	24%	-4.7%	0%	-15
10	COc1ccc2oc(-c3ccccc3)c(C(=O)N3CCOCC3)c2c1	3%	-0.9%	0%	7
11	CCCCn1c(N)c(N(CCC(C)C)C(=O)C2CCN(C(=O)c3ccccc3C)CC2)c(=O)[nH]c1=O	1%	-1.6%	·	·
12	Cc1cc(Nc2ccc(Br)cc2F)n2ncnc2n1	6%	-3.3%	0%	-8
13	CCOC(=O)c1cc(NC(=O)c2ccc(Cl)cc2)c(=O)n2c1oc1ccc(Cl)cc12	4%	-3.2%	-2%	-1
14	COc1cc(C)nc(N2CCCC(C(=O)Nc3cccc(Cl)c3C)C2)n1 (stereo unspecified)	-11%	-1.2%	-3%	-6
15	O=C(COC(=O)Cn1cnc2ccccc21)NCCCc1ccccc1	-14%	2.7%	-1%	7
16	CCCCN(CC)CCNC(=O)c1ccc2c(Cl)c3c(nc2c1)CCC3	6%	5.4%	-5%	·
17	Cc1ccc(C(=O)Nc2sc(Cc3ccc4c(c3)OCO4)c(C)c2C(N)=O)cc1	-17%	?	4%	1
18	COc1cc2ccccc2cc1C(=O)N1CCOCC1	5%	0.5%	·	·
19	CC(C)[C@H](N[C@@H](C)c1ccccc1)c1c(O)ccc2ccccc12	-3%	-1.6%	-7%	·
20	COc1ccc(C(C)n2c(C)c3c(C)nnc(C)c3c2C)cc1 (stereo unspecified)	?	?	10%&1%	1
21	Cc1ccc2nc(/C(C#N)=C\c3ccc(OC(=O)c4cccs4)cc3)[nH]c2c1	?	?	-15%	-3
22	C[C@H](CO)N1C[C@H](C)[C@@H](CN(C)CC2CCCCC2)Oc2c(NS(=O)(=O)c3cccs3)cccc2C1=O	9%	-3.9%	·	·
23	C=C1CCN([C@@H](Cc2ccccc2)C(=O)NCCCc2ccccc2)S(=O)(=O)c2ccccc21	-1%	3.4%	·	·
24	COc1cc2cnc(-c3ccccc3)cc2cc1OC	-15%	1.0%	·	·
25	CCN(CC)c1ccc(C2C(C(=O)OCCOC)=C(C)NC3=C2C(=O)CC(C)(C)C3)cc1 (stereo unspecified)	?	?	-1%	-20
26	CCCCn1nnnc1SCC(=O)N(CC)CC	-12%	2.9%	-2%	1
27	COc1ccc(OCC(=O)Nc2ccc(C)c(S(=O)(=O)N(C)C)c2)cc1	27%	1.7%	-1%	-3
28	CCOC(=O)c1ccc(NCc2ccncc2)cc1	-14%	?	·	·
29	C/C(N)=C(/C#N)C(=O)CSc1nnc(C)n1-c1ccccc1	5%	-1.1%	4%	2
30	Cc1c(F)cccc1NS(=O)(=O)c1ccc(N2CCCC2=O)cc1	11%	-0.1%	·	·
31	CCN1CCN(C(=O)c2ccc3c(c2)c(C)c(C)n3Cc2ccccc2)CC1	9%	0.2%	-1%	-2[21.1 µM]
32	Fc1ccc(NC(=S)NC23CN4CN(CN(C4)C2)C3)cc1	4%	-0.1%	-1%	-11
33	O=C(C1CCN(Cc2ccccc2)CC1)N1CCN(C/C=C/c2ccccc2)CC1	-7%	-3.2%	-1%	4
34	O=C(N/N=C1\C/C(=N\NC(=O)c2ccncc2)c2ccccc21)c1ccncc1	1%	-1.6%	7%	3
35	COc1ccc(N2CCN(C(=O)c3sc4ncn(CC(=O)N5CCCCC5C)c(=O)c4c3C)CC2)cc1 (stereo unspecified)	3%	3.3%	8%	·
36	COc1ccc(F)cc1C(=O)C1CCCN(C(=O)CSc2ccccn2)C1 (stereo unspecified)	16%	0.8%	-10%	4
37	COc1ccc(C(CNC(=O)c2ccc(NS(=O)(=O)c3ccc(F)c(C)c3)cc2)N2CCCC2)cc1 (stereo unspecified)	3%	0.1%	·	·
38	Cc1ccc(NC(=O)Cc2csc(-c3ccccc3)n2)cc1F	3%	-0.5%	-20%	2
39	CCCCn1c(N)c(Sc2ccccc2[N+](=O)[O-])c(=O)[nH]c1=O	2%	-0.5%	-1%	·
40	Cc1ccc(-c2c[n+](CC(=O)Nc3ccccc3)c3n2CCC3)cc1	2%	-0.3%	3%	1
41	COc1ccc(S(=O)(=O)N2CCCC(C(=O)NCc3cccnc3)C2)cc1OC (stereo unspecified)	-12%	0.2%	·	·
42	Nc1c(C(=O)C2CC2)sc2nc(-c3ccccc3)cc(C(F)(F)F)c12	?	?	-4%	-4
43	O=C(O)CCSCCCN1C(=O)c2cccc3cccc(c23)C1=O	-5%	0.0%	-12%	3
44	CCCCn1c(N)c(N(CCOC)C(=O)c2ccc(C)c(S(=O)(=O)N3CCCCC3)c2)c(=O)[nH]c1=O	0%	-4.5%	·	·
45	CCOc1ccc(NC(=O)CCN2CCN(c3ccccc3F)CC2)cc1	8%	3.1%	26%	0
46	COc1ccc(/C=C/C(=O)NCc2cn(C)nc2C)cc1COc1ccc(Br)cc1	3%	-0.3%	4%	-9
47	COc1ccc(NC(=S)N=Nc2c(O)[nH]c3ccccc23)cc1	0%	-1.3%	17%	-3
48	CC(C)OC(=O)/C(=C/c1ccc(Br)cc1)NC(=O)c1ccco1	4%	1.7%	-5%	7
49	CCOc1ccc(CCNC(=O)COC(=O)c2ccc(C)s2)cc1OCC	-17%	3.0%	-1%	·
50	CCCCn1nc2cc(C(=O)NCCc3cccs3)ccc2c1OCC	-1%	-1.6%	-18%	7
51	COc1cc(/C=C/C(=O)OCC(=O)Nc2ccc([N+](=O)[O-])cc2)ccc1O	-2%	-0.3%	-3%	-16
52	CCOC(=O)N1CCN(C(=O)c2ccc(CNS(=O)(=O)c3ccc(NC(C)=O)cc3)cc2)CC1	2%	-5.1%	-1%	·
53	COc1ccc(S(=O)(=O)N(C)C)cc1NC(=O)CSc1ncccn1	1%	1.4%	-5%	-1
54	O=C(Nc1ccc(N2CCN(c3ccc(O)cc3)CC2)cc1)Oc1ccccc1	-5%	-0.1%	0%	-8
55	COc1cc(NC(=S)NC2CC2)c(OC)cc1Cl	1%	2.0%	2%	-1
56	O=C(CCN1CCOCC1)NC1CCCN(Cc2ccccc2F)C1 (stereo unspecified)	1%	0.2%	-2%	·

(list continues)
entry	structure	Rango release inh	Rango-impB inh	miR-21 reporter	GLA inh pH 4.5
57	Cc1noc(C)c1S(=O)(=O)N(CC(=O)NCc1ccc(Cl)cc1)c1ccc2c(c1)OCO2	-1%	-2.9%	-3%	8
58	COc1ccccc1C(=O)Nc1cc(-c2ccc(C)cc2)no1	-15%	-0.4%	-47%&-42%	·
59	COc1ccc2oc(C(=O)OCC(=O)N3C(C)CCCC3C)c(C)c2c1 (stereo unspecified)	16%	2.4%	-18%	·
60	N#Cc1c(-c2ccccc2)nc(-c2ccccc2)nc1N1CCOCC1	-7%	-6.0%	0%	-2
61	CN(CC1COc2ccccc2O1)C(=O)c1ccc(Cl)c(S(=O)(=O)N2CCCCCC2)c1 (stereo unspecified)	-14%	5.0%	·	·
62	CC(=O)Nc1ccc(C(=O)N/N=C(\C)CC(=O)Nc2ccc(OCc3ccccc3)cc2)cc1	1%	-2.5%	-44%	-3
63	Cc1nc(NC(=O)c2ccc(F)cc2)nc2cc3c(cc12)OCO3	-11%	-1.9%	-22%	-2
64	C[C@@H]1C(NC(=O)c2ccccc2)CC2CC1C2(C)C (stereo partly specified)	-2%	-1.6%	2%	·

Overlap with the part before: 2 compounds, followed by the next part.
entry	structure	Rango release inh	Rango-impB inh	miR-21 reporter	GLA inh pH 4.5
63	Cc1nc(NC(=O)c2ccc(F)cc2)nc2cc3c(cc12)OCO3	-11%	-1.9%	-22%	-2
64	C[C@@H]1C(NC(=O)c2ccccc2)CC2CC1C2(C)C (stereo partly specified)	-2%	-1.6%	2%	·
65	CCC(C)n1nccc1NC(=O)C(C)Cl (stereo unspecified)	0%	-0.5%	2%	0
66	Cc1noc(C)c1C(=O)Nc1ccc(N(C)C)cc1	5%	0.7%	-1%	·
67	CCCn1c(NC(=O)c2ccc(C)cc2)nc2ccccc21	-5%	0.2%	-27%	-6
68	N=c1oc2ccc3ccccc3c2cc1-c1nnc2n1CCCCC2	?	?	-45%	?
69	O=C(OCc1ccccc1)C1=[N+]([O-])OC(C(=O)OCc2ccccc2)C1c1c[nH]c2ccccc12 (stereo unspecified)	3%	0.9%	14%	-18
70	COc1ccc(N2C3=C(CC4=C2CC(C)(C)CC4=O)C(=O)CC(C)(C)C3)cc1	?	?	?	-14
71	COc1ccc(C2/C=C\CN(C(=O)Nc3ccccc3-c3ccccc3)CC(=O)N2Cc2ccc(F)cc2)cc1 (stereo unspecified)	10%	-0.2%	23%	-6
72	O=C(CNC(=O)C12CC3CC(CC(C3)C1)C2)N1CCN(S(=O)(=O)c2cccs2)CC1	10%	-1.1%	0%	0
73	O=C(Nc1ccc2c(c1)[nH]c(=O)c1ccccc12)C(F)(F)F	-1%	3.5%	·	·
74	O=C(C=Cc1ccc(Cl)s1)c1ccc(Cl)s1	22%	-0.5%	·	·
75	O=C(C(c1ccccc1)c1ccccc1)N(Cc1ccco1)C1CCS(=O)(=O)C1 (stereo unspecified)	1%	-1.7%	-3%	1
76	Cc1ccccc1OCC(=O)Nc1cc(Cl)ccc1Oc1ccccc1	?	?	-1%	-23
77	Cc1ccc(CC23CN4CCN(CC(C4)C2O)C3)c(C)c1 (stereo unspecified)	-9%	-4.9%	2%	-10
78	Cn1cccc1CC(=O)N/N=C/C=C/c1ccco1	-8%	?	-7%	9
79	COc1cc(/C=C2\C(=N)N3N=C(CC(=O)N4CCOCC4)SC3=NC2=O)cc(OC)c1OC	2%	1.1%	2%	·
80	CC1(C)CC(=O)C=C(c2cccc3c2oc2ccccc23)C1	6%	1.3%	·	·
81	CC1CN(S(=O)(=O)c2ccc(C(=O)NC3CCCCC3)cc2)CC(C)O1 (stereo unspecified)	11%	-4.5%	·	·
82	O=C(Nc1ccccc1F)c1ccc([N+](=O)[O-])s1	-15%	?	10%	5
83	COc1ccc(OC)c(NC(=O)C2CCN(c3ncccn3)CC2)c1	10%	3.4%	-2%	-6
84	Cc1nn(-c2ccc(F)cc2)c(Cl)c1/C=N/NC(=O)c1cccc(S(=O)(=O)N2CCCC2)c1	11%	0.9%	-8%	-3
85	O=C(N/N=C/c1ccsc1)c1cc(-c2cccs2)nc2ccccc12	5%	0.4%	24%	12
86	O=C(O)Cc1sc(-c2ccccc2Cl)nc1-c1ccccc1	1%	3.0%	-6%	3
87	Cc1[nH]c2ccccc2c1/C=N\NC(=O)c1ccco1	14%	1.3%	-31%	·
88	O=C(O)C1CCN(C(=O)COc2ccc(Br)cc2)CC1	2%	-1.2%	7%	?
89	CCC(c1nnnn1Cc1ccco1)N(CCN1CCOCC1)Cc1cc2cc(C)ccc2[nH]c1=O (stereo unspecified)	-16%	?	-3%	0
90	O=C(Nc1ccc(Cl)cn1)c1ccc(Oc2ccccc2)cc1	-2%	3.0%	-27%	·
91	O=C(Nc1cccc(S(=O)(=O)NC2=NCCCCC2)c1)c1cc(-c2ccc(Cl)cc2)nc2ccccc12	1%	-0.4%	11%	-6

Not all compounds are listed; count on the stated rates, not on these rows.
